# Screening data (PubChem)
# Mtb betalactam – beta-lactam sensitization of Mtb H37Rv, H37Rv | inhibition, % at 25 µM | AID 434955, 2010 | 0.27% of 330,000 active | M. tuberculosis H37Rv growth with meropenem, percent inhibition; hits of this screen are not shown here;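 active means about 74% or more and at least 40 points above the plate without the antibiotic, then above 30% in a dose series; inconclusive means first-round hits that could not be retested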;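 further: growth measured after seven days incubation then overnight dye step; 0% = bacteria only wells and 100% = bacteria with antibiotic; twin plates without the antibiotic show which effects depend on it; some results filed as inactive read as strong as hits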
# Mtb growth – M. tuberculosis H37Rv growth inhibitors, H37Rv strain (AID 1626); M. tuberculosis H37Rv growth inhibition; higher % means a stronger effect; inhibition, % at 10 µM; hits with a dose series show IC50 in µM; 0.95% of 220,000 active;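 active means confirmed in a dose series; inconclusive means inhibition above 80% but not taken into the dose series; inactive means below 80% or under 30% at every dose of the series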;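 further: bacteria incubated seven days before Alamar blue readout; 0% = bacteria only wells and 100% = bacteria with antibiotic wells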
# Arbovirus inh – antivirals against arbovirus infection, primary screen, cell-based, full library, 10K replicate subset; inhibition, % at 10 µM; arbovirus infection cell-based antiviral screen; 0.37% of 200,000 active; AID 1251, 2008;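 active means inhibition from about 30%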;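 further: bluetongue infection of BSR cells; cell survival read as ATP light after 72 h; 0% = infected wells without compound and 100% = uninfected wells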
# RecA splice inh – Mtb RecA intein splicing inhibitors, primary screen, biochemical, fluorescence, HTS; Protein RecA (Mycobacterium tuberculosis (strain ATCC 25618 / H37Rv)), P9WHJ3; cell-free RecA intein splicing; inhibition, %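 (about 9 µM by stock and volumes)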; 0.75% of 290,000 active; AID 2221, 2009; in the data active means inhibition above about 30%; inconclusive means no clear call, values can overlap the other calls;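 further: 0% = vehicle wells and 100% = reference inhibitor control wells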
# Target sequence (P9WHJ3 whole entry, looked up, canonical isoform): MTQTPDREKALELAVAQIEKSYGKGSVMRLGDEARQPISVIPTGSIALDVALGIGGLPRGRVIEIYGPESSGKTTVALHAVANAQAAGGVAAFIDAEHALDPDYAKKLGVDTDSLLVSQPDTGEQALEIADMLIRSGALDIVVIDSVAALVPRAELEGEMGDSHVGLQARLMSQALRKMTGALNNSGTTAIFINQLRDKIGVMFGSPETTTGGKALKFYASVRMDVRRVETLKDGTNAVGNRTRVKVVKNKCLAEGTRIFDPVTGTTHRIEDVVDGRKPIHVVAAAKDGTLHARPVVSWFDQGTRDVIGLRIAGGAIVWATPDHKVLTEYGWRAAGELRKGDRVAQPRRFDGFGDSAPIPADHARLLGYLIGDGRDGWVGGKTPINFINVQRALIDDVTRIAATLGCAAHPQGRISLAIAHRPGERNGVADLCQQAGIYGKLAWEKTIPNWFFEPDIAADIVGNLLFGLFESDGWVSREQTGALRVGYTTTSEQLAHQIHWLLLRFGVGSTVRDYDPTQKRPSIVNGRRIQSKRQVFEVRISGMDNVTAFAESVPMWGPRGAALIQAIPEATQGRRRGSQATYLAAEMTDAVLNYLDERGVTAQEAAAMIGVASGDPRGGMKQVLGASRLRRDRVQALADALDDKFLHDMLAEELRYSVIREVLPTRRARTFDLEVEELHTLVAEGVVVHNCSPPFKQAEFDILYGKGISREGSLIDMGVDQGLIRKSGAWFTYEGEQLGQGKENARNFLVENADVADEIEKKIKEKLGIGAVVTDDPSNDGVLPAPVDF
# YopH PTP inh – YopH tyrosine phosphatase inhibitors, primary screen, biochemical, fluorescence Ex485/Em525 | inhibition, %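 (about 10 µM by stock and volumes)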 | 0.16% of 140,000 active;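 active means inhibition of 50% or more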;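 further: controls were vehicle for no effect and minimum signal wells for full effect; inactives centre near -20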
# Arbovirus inh repeat – second read-out of Arbovirus inh, no call of its own (marks repeat the call); inhibition, %; measured here: 10K subset replicate screen; many hits read low in the repeat;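 first of two repeat runs on a subset; 0% = infected and 100% = uninfected wells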
# * marks the source's active call; other numbers are inactive results; ? = inconclusive; . = not tested or not shown.
SMILES,Mtb betalactam,Mtb growth,Arbovirus inh,RecA splice inh,YopH PTP inh,others
COc1cccc(NS(=O)(=O)Cc2ccccc2)c1,-7,4%,10,-14,-4,
COc1ccccc1NC(=O)CSc1nnc(CC(=O)Nc2cccc(C(F)(F)F)c2)n1C,-9,-3%,-8,-1.4,1,
Cc1ccc(NS(=O)(=O)c2ccc(C(=O)N3CCOCC3)cc2)cc1,-9,.,.,-2.6,.,
CCN(C(=O)COc1nc(C)cc(C)c1C#N)c1ccccc1,3,.,.,-1.5,.,
O=C(O)c1ccc(NCc2nc3ccccc3n2Cc2ccccc2F)cc1,-2,1%,.,1.4,.,
COc1cc(CNc2nc3ccccc3s2)cc(OC)c1OC,-1,.,.,0.8,.,
COCC1CCN(C(=O)c2oc3c(F)cccc3c2C)C1 (stereo unspecified),3,.,.,11,.,
Cc1cc(C)cc(NC(=O)N(C)Cc2ccccc2)c1,-3,-13%,.,3.1,.,
CC(=O)N1CCN(c2ccc(NC(=O)c3ccc4c(c3)OCCO4)cc2)CC1,7,-1%,2,.,-22,
CCc1noc(C)c1C(=O)Nc1ccc(F)c(F)c1,-12,.,.,1.3,.,
O=C1c2ccccc2C(=O)N1CCc1nc(-c2ccncc2)no1,-8,-1%,2,-0.8,11,
O=C1CCCc2ccccc2N1Cc1ccccc1Cl,6,1%,1,3.9,-32,
N#Cc1ccc2c(c1)nnn2-c1ccccc1,-8,.,.,0.3,.,
COc1ccc2c(c1OC)C(=O)OC2Nc1ncc(Br)cc1Br (stereo unspecified),-6,0%,8,-0.3,-12,
Nn1c(SCC(=O)Nc2ccc3c(c2)OCO3)nnc1C1CCCCC1,-11,.,-12,0.5,-33,
CCOC(=O)c1c(-c2ccc(C)cc2)csc1NC(=O)c1cc2ccccc2oc1=O,75,.,.,0.0,.,
CCCN(CCC)CCCNC(=O)C(NS(=O)(=O)c1ccc2c(c1)CCC(=O)N2)c1ccccc1 (stereo unspecified),19,0%,7,-0.3,.,
Cc1nc2ccccc2c2c1C(=O)N(C1CCCCCCC1)C2=O,-7,3%,0,7.4,-113,
COCCCNC(=O)CS(=O)Cc1nc(-c2ccccc2C)oc1C (stereo unspecified),1,46%,0,0.3,-6,Arbovirus inh repeat=2
Cc1ccnc(NC(=O)C2COc3ccccc3O2)c1 (stereo unspecified),7,4%,8,-0.3,9,
Cc1cccc(NC(=O)CS(=O)CC(=O)Nc2cnc3ccccc3c2)c1C (stereo unspecified),16,.,.,1.3,.,
Nc1c(NCCCN2CCOCC2)c2ccccc2oc1=O,-3,-3%,8,-2.5,-15,
CCOC(=O)C1CCN(S(=O)(=O)c2cnc[nH]2)CC1,-8,8%,1,0.4,-29,
CN(C)CCCn1c(SCCN2C(=O)c3ccccc3C2=O)nc2ccccc2c1=O,-6,1%,0,-0.8,.,
COc1ccccc1C(=O)Nc1nnc(C)s1,.,3%,6,-1.6,-10,

# For reference, some entries already given:
SMILES,Mtb betalactam,Mtb growth,Arbovirus inh,RecA splice inh,YopH PTP inh,others
COc1cccc(NS(=O)(=O)Cc2ccccc2)c1,-7,4%,10,-14,-4,
COc1ccccc1NC(=O)CSc1nnc(CC(=O)Nc2cccc(C(F)(F)F)c2)n1C,-9,-3%,-8,-1.4,1,
Cc1ccc(NS(=O)(=O)c2ccc(C(=O)N3CCOCC3)cc2)cc1,-9,.,.,-2.6,.,

# Next section:
SMILES,Mtb betalactam,Mtb growth,Arbovirus inh,RecA splice inh,YopH PTP inh,others
CC(C)c1nnc(NC(=O)CS(=O)(=O)Cc2ccccc2)s1,-1,0%,7,3.3,.,
O=C(N/N=C\c1ccc(-c2ccccc2[N+](=O)[O-])o1)C1COc2ccccc2O1 (stereo unspecified),-12,-5%,12,33*,-20,
Cc1nn(-c2ccccc2)c(C)c1NC(=O)COC(=O)c1cc(Br)ccc1O,-3,.,.,0.9,.,
Cn1c(CNc2ccccc2O)nc2ccccc21,99,?,-11,4.8,-34,Arbovirus inh repeat=-9
CC(C)COc1ccc(C(=O)OCCN2CCOCC2)cc1,.,-8%,12,-0.7,5,
CCOC(=O)C1=NOC(CNc2ncc(C(F)(F)F)cc2Cl)C1 (stereo unspecified),96,?,5,3.6,.,
Cc1cc(C)cc(NS(=O)(=O)c2c(C)[nH]c(=O)[nH]c2=O)c1,-5,.,.,2.6,.,
CC(=O)c1cccc(NC(=O)N2CCCC2C(=O)Nc2ccc3c(c2)OCCO3)c1 (stereo unspecified),9,-4%,1,-2.7,.,
CCNC(=O)NC(=O)COC(=O)C1CSC2(C)CCC(=O)N12 (stereo unspecified),-5,-4%,4,3.1,.,
CN(C)CCCN(C(=O)c1ccc2ccccc2c1)c1nc2cc3c(cc2s1)OCO3,4,.,.,-2.3,.,
Cn1c(=O)c2cc(NC(=O)c3ccccc3Cl)c(=O)oc2n(C)c1=O,3,-3%,10,1.1,-27,
O=C1/C(=C\c2cc3c(cc2Br)OCO3)N2CCC1CC2,3,4%,-1,0.6,-3,
O=C(NCCN1CCOCC1)/C(=C\c1ccccc1Cl)NC(=O)c1ccccc1,0,.,.,-2.5,.,
Cc1nc(SCC(=O)N2CCCc3ccccc32)c2oc3ccccc3c2n1,8,7%,5,1.7,-40,
COc1ccc(CCNC(=O)C(=O)NCc2ccc(C(C)C)cc2)cc1OC,-13,1%,-10,1.5,-23,
COc1ccccc1NC(=O)N1CCN(c2cccc(C(F)(F)F)c2)CC1,1,-4%,-7,1.1,-4,Arbovirus inh repeat=-2
O=C(CCn1c(=O)[nH]c2ccccc2c1=O)Nc1ccccc1,5,-8%,7,-3.5,-39,
Nc1nc(NCCOCCO)nc(NCC2CCCO2)c1[N+](=O)[O-] (stereo unspecified),2,-9%,.,-1.4,.,
Cc1ccc(C(=O)C(C)N2C(=O)NC(C)(c3ccccc3)C2=O)cc1 (stereo unspecified),-3,-2%,10,-3.2,.,
CCCc1nc2c(=O)n(C)c(=O)[nH]c2n1C,-15,.,-2,-18,-17,
N#Cc1cc(C(=O)c2ccccc2O)cn(-c2ccc(Cl)cc2)c1=O,-3,4%,-1,4.2,.,
CC1=CC(C)(C)Nc2ccc(OC(=O)C(Cc3ccccc3)N3C(=O)C4CCCCC4C3=O)cc21 (stereo unspecified),-4,-9%,-46,5.9,-16,
CC1CN(C(=S)SCC(=O)c2ccccc2)CC(C)O1 (stereo unspecified),3,8%,-2,1.8,-10,
NS(=O)(=O)c1ccc(CCNC(=O)c2ccc(Cl)cc2[N+](=O)[O-])cc1,-6,5%,5,-4.5,.,
Cc1cc(C)c2c(N=NN3CCCCC3)[nH]nc2n1,-3,-5%,-7,-2.5,-30,

# In the list so far, these have a cyano group.
SMILES,Mtb betalactam,Mtb growth,Arbovirus inh,RecA splice inh,YopH PTP inh,others
CCN(C(=O)COc1nc(C)cc(C)c1C#N)c1ccccc1,3,.,.,-1.5,.,
N#Cc1ccc2c(c1)nnn2-c1ccccc1,-8,.,.,0.3,.,
N#Cc1cc(C(=O)c2ccccc2O)cn(-c2ccc(Cl)cc2)c1=O,-3,4%,-1,4.2,.,

# Other structures:
SMILES,Mtb betalactam,Mtb growth,Arbovirus inh,RecA splice inh,YopH PTP inh,others
COc1ccc(C2(O)CCN(C(=O)Cc3cccnc3)CC2)cc1,-6,-5%,-2,3.9,-16,Arbovirus inh repeat=-3
Cc1ccc(C(=O)OCC(=O)N(CC(C)C)c2c(N)n(Cc3ccccc3)c(=O)[nH]c2=O)o1,-8,.,.,-1.6,.,
O=C(CN(c1ccccc1)S(=O)(=O)c1ccccc1)Nc1ccccc1C(=O)NCc1ccco1,-5,2%,11,12,-1,
COc1ccc(N2CCN(c3nc(Nc4ccc(F)cc4)nc(OC)n3)CC2)cc1,.,-9%,-16,.,-30,
Cc1ccc(NC2=C(Cl)C(=O)OC2OC(=O)c2ccccc2)c(C)c1 (stereo unspecified),31,-7%,7,28,.,
Cc1ccc(OCC(O)CN2CCN(CC(O)COc3ccc(C)cc3)CC2)cc1 (stereo unspecified),2,2%,5,-0.1,-40,
Nc1ccccc1C(=O)NCCN1CCNC1=O,-7,-7%,.,0.1,.,
CC(=O)c1c(C)nn(CC(O)Cn2c3c(c4cc(C)ccc42)CCCC3=O)c1C (stereo unspecified),-14,8%,1,.,-40,
CN1CCN(NC(=O)/C=C/c2ccc(C(C)(C)C)cc2)CC1,-13,.,.,-0.9,.,
O=C(O)c1cc(Cl)c2c(c1)OCO2,-4,-8%,.,-3.4,.,
CC1CCCCN1CC(=O)NC(=O)NCc1ccccc1 (stereo unspecified),-13,2%,9,-0.9,-25,
COc1ccc(CCNC(=O)CN2C(=O)NC(C)(c3ccc([N+](=O)[O-])cc3)C2=O)cc1 (stereo unspecified),1,9%,2,.,.,
CCCCc1c(C)[nH]c(C(=O)OCC)c1C,-4,2%,1,-3.5,.,
Cc1ccc(S(=O)(=O)NNC(=O)C2Cc3c(ccc4ccccc34)O2)cc1 (stereo unspecified),2,-9%,9,-1.0,-7,
CC(C)C(c1nnnn1C1CCCCC1)N1CCN(c2ncccn2)CC1 (stereo unspecified),0,2%,10,2.6,16,
COC(=O)c1ccc(NC(=O)CSc2nnc(-c3cccnc3)o2)cc1,-11,.,.,1.0,.,
COc1cccc(C(=O)Nc2cccc(SC)c2)c1,1,-5%,-6,7.9,0,
O=c1cc(-c2ccccc2)nc(N2CCCCC2)[nH]1,2,-9%,7,0.6,-38,
CS(=O)(=O)N(CC(=O)Nc1cc(Cl)ccc1Cl)c1ccccc1Cl,-17,-1%,-1,-29,7,
N#Cc1cc(C(=O)c2ccccc2OCC(=O)Nc2ccccc2)cn(C2CCCCC2)c1=O,-1,4%,5,-0.1,-18,
O=C(Cn1cnc2c(cnn2-c2ccccc2)c1=O)NCCc1ccccc1,-20,1%,3,-0.9,-20,
O=C(COc1ccc([N+](=O)[O-])cc1)NN=C1CCCC1,0,-2%,2,-2.7,-10,
C=CCNC(=O)c1cc2c(=O)n3cccc(C)c3nc2s1,6,.,.,-36,.,
Cc1ccc(-c2nnn(CC(=O)Nc3ccccc3-c3ccccc3)n2)c(-n2cnnn2)c1,.,-10%,-2,1.3,-32,
O=C(Nc1ccccn1)c1ccc2ccccc2n1,54,11%,-3,2.3,-34,

# Filtered by structure: the entries above containing a thiophene ring, fused or not.
SMILES,Mtb betalactam,Mtb growth,Arbovirus inh,RecA splice inh,YopH PTP inh,others
CCOC(=O)c1c(-c2ccc(C)cc2)csc1NC(=O)c1cc2ccccc2oc1=O,75,.,.,0.0,.,
C=CCNC(=O)c1cc2c(=O)n3cccc(C)c3nc2s1,6,.,.,-36,.,

# Next part:
SMILES,Mtb betalactam,Mtb growth,Arbovirus inh,RecA splice inh,YopH PTP inh,others
C=CCOc1c(Br)cc(CNn2c(C)n[nH]c2=S)cc1OCC,-2,.,.,-1.4,.,
CCCCNC(=O)COC(=O)c1cc(C)oc1C,2,5%,0,-0.1,.,
O=S(=O)(NCC1(N2CCOCC2)CCCCC1)c1ccc(F)cc1,6,.,.,-3.6,.,
O=C(CN(Cc1ccccc1F)C(=O)Cn1nnc(-c2cccs2)n1)NCC1CCCO1 (stereo unspecified),-9,3%,-1,1.5,-47,
c1csc(-c2nc(-c3ccc(-c4ccon4)s3)no2)c1,-5,-14%,.,0.8,.,
Cc1cc(NC(=O)c2cccs2)cc(-c2nc3ncccc3o2)c1O,-14,.,.,-1.6,.,
Cc1cccc(-c2nc(CS(=O)CC(=O)NC3CCCC3)c(C)o2)c1 (stereo unspecified),.,0%,5,.,-46,Arbovirus inh repeat=7
COc1cccc(OCC(=O)Nc2ccccc2C(=O)Nc2ccc(C(=O)O)cc2)c1,5,.,.,0.6,.,
O=C(O)c1cccc(Cn2c(Cl)c(/C=N/NC(=O)c3cccc(O)c3)sc2=O)c1,-4,-13%,.,4.2,.,
CCC/C=C1/CCCOC(C(=O)NCc2ccccc2)(C(F)(F)F)C1 (stereo unspecified),-12,-24%,.,3.5,.,
COCn1c(COc2ccc3ccccc3c2)nc2ccccc21,-8,10%,-16,1.7,-9,
Clc1ccccc1-c1nnc2sc(-c3ccc(Br)o3)nn12,0,4%,-1,-1.3,-17,
CC(=O)N(CCN(C(C)=O)c1ccccc1)c1ccccc1,4,-4%,3,-2.8,-4,

# Some of the compounds tested. The share of hits here may be higher or lower than overall.
